# GPR55 antagonists = inhibition of LPI-stimulated GPR55 beta-arrestin translocation – imaging, U2OS, beta-arrestin-GFP, LPI agonist, primary screen (AID 2013); U2OS GPR55 beta-arrestin-GFP translocation imaging, LPI antagonism; higher % means a stronger effect; inhibition, % at 10 µM, or IC50 in µM where a hit was titrated; 290,000 compounds, 0.13% hits;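 active = spots per cell inhibited over 60%, with over 100 cells counted and total cytoplasm intensity under 500,000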;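 also: U2OS cells stably carrying GPR55 and arrestin-GFP stimulated by 5 µM LPI near EC80; imaged beta-arrestin-GFP aggregate spots per cell after agonist stimulation; plate controls were LPI-stimulated DMSO wells for no effect and DMSO wells without LPI for full effect; some results filed as inactive read as strong as hits; confirmed hits need IC50 under 10 µM and bright autofluorescent wells are also inconclusive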
# GPR55 activation = GPR55 agonists via beta-arrestin recruitment, primary screen, imaging, U2OS cells, beta-arrestin-GFP redistribution (AID 1961); activation, % at 10 µM; hits with a dose series show EC50 in µM; U2OS GPR55 beta-arrestin-GFP redistribution imaging; higher % means a stronger effect; 290,000 compounds, 0.048% hits;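 active = activation above 40% with more than 50 cells counted in the well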;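 also: U2OS osteosarcoma cells stably expressing GPR55 and beta-arrestin-GFP; plate controls were DMSO negative control for no effect and LPI positive control for full effect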
# Siah-1 displacement = Siah-1 peptide-binding antagonists, primary screen, biochemical, fluorescence polarization, rhodamine-plectin, uHTS (AID 1817); 290,000 compounds, 0.02% hits; one-dose displacement, % at 20 µM; IC50 in µM for titrated hits; Siah-1 / rhodamine-plectin peptide fluorescence polarization; higher % means a stronger effect;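 active = displacement of at least 50% at 20 µM, with a fluorescence ratio check between 0.3 and a set limit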;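 also: plate controls were Siah plus tracer with DMSO for no effect and tracer alone without Siah for full effect; strong numbers were not always called active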
# KOR agonists = kappa opioid receptor activators – cell-based, luminescence, uHTS, primary screen (AID 1777) | KOR beta-arrestin recruitment, luminescence; higher % means a stronger effect | activation, % at 10 µM; hits with a dose series show EC50 in µM | 280,000 compounds, 0.02% hits; in the data active = activation above about 50%, passing the limit was not always enough; also: a part of the inactive calls stands beside numbers as strong as those of hits
# AID2073 = inhibitors of Mint1-CaV2.2 protein interaction, biochemical, HTRF (AID 2073). HTRF protein-protein interaction, Mint1-CaV2.2; higher % means a stronger effect. inhibition, % at 20 µM, or IC50 in µM where a hit was titrated. 290,000 compounds, 0.19% hits; in the data active = inhibition mostly above about 51%, no sharp cut-off; also: some results filed as inactive read as strong as hits
# HIV fusion peptide = cell-free HIV fusion peptide-binding blockers – biochemical, uHTS, fluorescence dequenching, primary screen (AID 1986). inhibition, % at 20 µM, or IC50 in µM where a hit was titrated. 290,000 compounds, 0.3% hits. cell-free peptide binding, fluorescence dequenching, 30 min; higher % means a stronger effect; in the data active = inhibition mostly above about 52%, no sharp cut-off; inactive = mostly below about 76%; also: some results filed as inactive read as strong as hits
# GPR35 arrestin U2OS = GPR35 antagonists blocking zaprinast-driven arrestin recruitment, primary screen, imaging, U2OS, beta-arrestin-GFP, zaprinast agonist (AID 2058); U2OS GPR35 beta-arrestin-GFP translocation imaging, zaprinast antagonism; higher % means a stronger effect; one-dose inhibition, % at 10 µM; IC50 in µM for titrated hits; 290,000 compounds, 0.052% hits;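 active = inhibition of at least 50% with at least 30 cells and total cytoplasm GFP at most 10,000,000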
# Active calls of the source: *; . = not tested or not shown. Only part of the results is shown; rates above refer to the full screens.
# Field names – A = GPR55 antagonists; B = GPR55 activation; C = Siah-1 displacement; D = KOR agonists; E = AID2073; F = HIV fusion peptide; G = GPR35 arrestin U2OS
> O=C(NCc1ccco1)c1ccc(N2CCCC2=O)cc1
  A = 10%	B = -0.1%	C = 5%	D = 5.2%	E = 3%	F = 2.1%	G = 0%
> O=C(O)c1c[nH]c(=S)n1-c1ccc(F)cc1
  A = -1%	B = -0.3%	C = -1%	D = 1.7%	E = -7%	F = -3.6%	G = 6%
> CC1=C(C(N)=O)C(c2ccccc2)n2nc(-c3ccncc3)nc2N1 (configuration not stated)
  A = 4%	B = -0.1%	C = 2%	D = 4.9%	E = -4%	F = 1.0%	G = 19%
> COC(=O)c1ccccc1OCCCOc1ccc(C=O)cc1OC
  A = 5%	B = -2.3%	C = -1%	D = -1.7%	E = 22%	F = -0.9%	G = 17%
> CC(C)NC(=O)c1n[nH]c(=O)c2ccccc12
  A = 9%	B = -0.1%	C = 6%	D = 14%	E = 1%	F = 1.7%	G = 6%
> O=S(Cc1ccccc1)CC(O)(c1ccccc1)c1ccccc1 (configuration not stated)
  A = 6%	B = 0.0%	C = 6%	D = 1.7%	E = -7%	F = 1.3%	G = 15%
> O=C(c1cccnc1)N1CCN(Cc2cccc(F)c2)CC1
  A = -6%	B = 0.2%	C = -4%	D = 8.7%	E = -4%	F = 2.9%	G = -4%
> CCCNC(=O)c1ccccc1NC(=O)COc1ccc(OC)cc1
  A = 6%	B = -0.1%	C = -1%	D = 2.4%	E = 10%	F = -0.4%	G = 19%
> CC(=O)NC1(NC(C)=O)CCN(C)C(c2ccccc2)C1C (configuration not stated)
  A = -6%	B = 0.0%	C = 0%	D = 0.4%	E = 5%	F = 0.6%	G = -1%
> O=C(Cc1ccc(Cl)cc1)N1CCN(C(=O)c2ccco2)CC1
  A = 12%	B = 0.0%	C = 4%	D = 0.3%	E = 9%	F = 0.1%	G = 18%
> O=C(O)COc1ccc(-c2nccc(-c3cccs3)n2)cc1
  A = 8%	B = -0.1%	C = -4%	D = 4.6%	E = 26%	F = -3.0%	G = 5%
> Cc1cc(C)cc(N(C(=O)c2csnn2)C(C(=O)NC(C)(C)C)c2cccs2)c1 (configuration not stated)
  A = -8%	B = -0.1%	C = 1%	D = -1.5%	E = -6%	F = -1.3%	G = 6%
> Cc1ccc(CSc2nc3ccccc3cc2C=O)cc1
  A = -7%	B = -0.1%	C = -2%	D = 1.1%	E = -3%	F = 8.5%	G = -22%
> Cc1cc(OC(C)C)nc(NCc2ccccc2)n1
  A = 2%	B = -0.1%	C = 6%	D = -1.6%	E = 0%	F = -2.9%	G = 23%
> CC1CN/C(=C\C(=O)c2ccccc2)C(=O)N1 (configuration not stated)
  A = 17%	B = 0.3%	C = 4%	D = -0.6%	E = -11%	F = -2.0%	G = 6%
> COc1ccc(-c2c(C)n([O-])c3c([n+]2=O)CCCC3)cc1
  A = -12%	B = 0.2%	C = 1%	D = 4.6%	E = 9%	F = 0.0%	G = 2%
> CC(C)C(=O)N1CCN(C2=NS(=O)(=O)c3ccccc32)CC1
  A = 6%	B = -0.2%	C = 3%	D = -2.7%	E = -5%	F = -0.4%	G = -2%
> CC1CCCN(C(C(=O)Nc2ccc3c(c2)OCCO3)c2ccccc2)C1 (configuration not stated)
  A = -8%	B = 0.0%	C = -2%	D = 3.1%	E = -3%	F = -2.0%	G = -2%
> Cc1ccccc1C(=O)Nc1ccccc1-c1nnn(CC(=O)Nc2ccc3c(c2)OCCO3)n1
  A = -9%	B = -0.1%	C = -5%	D = 13%	E = 11%	F = 0.8%	G = -3%
> Cc1cccnc1NC(=S)NC(=O)c1cccs1
  A = -1%	B = -0.1%	C = 0%	D = -1.3%	E = 20%	F = -1.7%	G = -2%
> c1ccc(-c2n[nH]c(-c3ccccc3)c2-c2nc3ccccc3[nH]2)cc1
  A = 21%	B = 0.0%	C = 4%	D = -2.9%	E = 2%	F = 2.0%	G = 13%
> CCCCn1nc2cc(C(=O)NCc3ccc(OC)cc3)ccc2c1OCC
  A = 8%	B = 0.0%	C = -3%	D = 3.6%	E = 8%	F = -2.7%	G = 1%
> CCCCc1c(CCC)c(=N)c2ccccc2n1C
  A = 21%	B = -0.1%	C = 3%	D = 2.1%	E = -4%	F = -1.3%	G = 0%
> CCCS(=O)(=O)N1CCC(C(=O)NCCCOC)CC1
  A = -3%	B = 0.4%	C = 0%	D = 3.9%	E = 16%	F = -0.6%	G = 11%
> COC(=O)COc1ccc(Cl)cc1C1Nc2ccccc2C(=O)N1c1ccc(OC)cc1 (configuration not stated)
  A = 9%	B = 0.0%	C = 4%	D = 1.0%	E = 3%	F = 1.1%	G = 4%

# Additional records follow:
# Field names – A = GPR55 antagonists; B = GPR55 activation; C = Siah-1 displacement; D = KOR agonists; E = AID2073; F = HIV fusion peptide; G = GPR35 arrestin U2OS
> Cc1nc(-n2nnc3cc(C)c(C)cc32)c2c3c(sc2n1)CCCC3
  A = 2%	B = -0.1%	C = 4%	D = 4.9%	E = 20%	F = 3.3%	G = 9%
> Brc1ccc(-c2csc(N3CCc4ccccc4C3)n2)cc1
  A = .	B = 0.2%	C = 0%	D = 2.2%	E = 2%	F = 1.5%	G = 5%
> Cc1ccc(C(=O)CCC(=O)Nc2cccc(C(F)(F)F)c2)cc1
  A = 7%	B = 0.7%	C = 0%	D = -0.8%	E = -7%	F = -1.3%	G = 9%
> Cc1cccc(-n2nnc(C(=O)NCc3ccco3)c2N)c1
  A = 10%	B = 0.0%	C = 1%	D = -2.6%	E = 4%	F = 2.0%	G = -11%
> COc1ccc2c(C)cc(SCC(=O)c3ccc4c(c3)OCO4)nc2c1
  A = -16%	B = 0.1%	C = -3%	D = -5.2%	E = -1%	F = -1.5%	G = 10%
> Cc1[nH][nH]c(=O)c1C(c1c(C)[nH][nH]c1=O)c1cn(Cc2cccc3ccccc23)c2ccccc12
  A = 4%	B = 1.7%	C = -4%	D = 1.8%	E = -8%	F = 22%	G = -22%
> CC(=O)Nc1cccc(N2C(=O)CCC2=O)c1
  A = -3%	B = -0.3%	C = -4%	D = 6.1%	E = -4%	F = -0.8%	G = 27%
> CC(c1ccc(F)cc1)n1c(-c2ccc3ccccc3n2)n[nH]c1=S (configuration not stated)
  A = 12%	B = -0.1%	C = -1%	D = 0.7%	E = 20%	F = 6.0%	G = 12%
> CCOc1ccc(NC(=O)C(C)Oc2ccccc2C(=O)Nc2ccc(C)c(Cl)c2)cc1 (configuration not stated)
  A = 12%	B = -0.1%	C = 5%	D = 3.0%	E = 9%	F = -3.1%	G = 1.3µM*
> COC(=O)C1(O)CC(C(C)C)=NN1C(=O)c1ccc(Cl)cc1 (configuration not stated)
  A = 21%	B = -0.1%	C = 0%	D = 1.6%	E = 12%	F = -2.1%	G = 8%
> Cc1cccc(C(=O)Nc2cccc(OC(=O)c3cccc(C)c3)c2)c1
  A = 2%	B = -0.1%	C = -3%	D = 0.2%	E = -1%	F = 0.9%	G = 4%
> CC(=O)c1c(C)[nH]c(C(=O)N2CCc3ccccc3C2)c1C
  A = 14%	B = -0.2%	C = 3%	D = 2.3%	E = -1%	F = -0.7%	G = -9%
> O=S(=O)(Cc1ccc(Cl)cc1)c1ccccc1-c1nnc(-c2ccc(Cl)cc2)o1
  A = 9%	B = 0.2%	C = -5%	D = 3.7%	E = 10%	F = 2.8%	G = 6%
> Cc1ccc(Sc2cc(N3CCOCC3)nc(-c3ccccc3)n2)cc1
  A = 3%	B = -0.1%	C = 2%	D = -1.8%	E = 22%	F = 1.8%	G = 2%
> CCCCOP(=O)(c1ccc(N(C)C)cc1)C(O)c1cccnc1 (configuration not stated)
  A = .	B = 0.2%	C = 1%	D = 1.7%	E = 14%	F = -0.8%	G = 14%
> Cc1ccc(S(=O)(=O)N2CCC(CN3C(=O)c4cccc5cccc(c45)C3=O)CC2)cc1
  A = 14%	B = 0.0%	C = 2%	D = 0.5%	E = 18%	F = -4.4%	G = 22%

# Of the compounds above, 10 contain a halogen.
# Field names – A = GPR55 antagonists; B = GPR55 activation; C = Siah-1 displacement; D = KOR agonists; E = AID2073; F = HIV fusion peptide; G = GPR35 arrestin U2OS
> O=C(O)c1c[nH]c(=S)n1-c1ccc(F)cc1
  A = -1%	B = -0.3%	C = -1%	D = 1.7%	E = -7%	F = -3.6%	G = 6%
> O=C(c1cccnc1)N1CCN(Cc2cccc(F)c2)CC1
  A = -6%	B = 0.2%	C = -4%	D = 8.7%	E = -4%	F = 2.9%	G = -4%
> O=C(Cc1ccc(Cl)cc1)N1CCN(C(=O)c2ccco2)CC1
  A = 12%	B = 0.0%	C = 4%	D = 0.3%	E = 9%	F = 0.1%	G = 18%
> COC(=O)COc1ccc(Cl)cc1C1Nc2ccccc2C(=O)N1c1ccc(OC)cc1 (configuration not stated)
  A = 9%	B = 0.0%	C = 4%	D = 1.0%	E = 3%	F = 1.1%	G = 4%
> Brc1ccc(-c2csc(N3CCc4ccccc4C3)n2)cc1
  A = .	B = 0.2%	C = 0%	D = 2.2%	E = 2%	F = 1.5%	G = 5%
> Cc1ccc(C(=O)CCC(=O)Nc2cccc(C(F)(F)F)c2)cc1
  A = 7%	B = 0.7%	C = 0%	D = -0.8%	E = -7%	F = -1.3%	G = 9%
> CC(c1ccc(F)cc1)n1c(-c2ccc3ccccc3n2)n[nH]c1=S (configuration not stated)
  A = 12%	B = -0.1%	C = -1%	D = 0.7%	E = 20%	F = 6.0%	G = 12%
> CCOc1ccc(NC(=O)C(C)Oc2ccccc2C(=O)Nc2ccc(C)c(Cl)c2)cc1 (configuration not stated)
  A = 12%	B = -0.1%	C = 5%	D = 3.0%	E = 9%	F = -3.1%	G = 1.3µM*
> COC(=O)C1(O)CC(C(C)C)=NN1C(=O)c1ccc(Cl)cc1 (configuration not stated)
  A = 21%	B = -0.1%	C = 0%	D = 1.6%	E = 12%	F = -2.1%	G = 8%
> O=S(=O)(Cc1ccc(Cl)cc1)c1ccccc1-c1nnc(-c2ccc(Cl)cc2)o1
  A = 9%	B = 0.2%	C = -5%	D = 3.7%	E = 10%	F = 2.8%	G = 6%
